Source: PubChem BioAssay
HCMV NEC inh – inhibitors of HCMV UL50-UL53 nuclear egress complex interaction | HTRF UL50-UL53 interaction, normalized percent inhibition | inhibition, % (no concentration beside the values) | hit rate 0.15% among 190,000;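 active = both replicates at 50% or more, plus weaker picks with an unusually low signal ratio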;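 note: stock transfer was 100 nL into about 20 µL; 0% = negative control wells and 100% = wells with untagged competitor protein; inactives centre near -12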
* = called active by the depositor; & = joins results of further samples.

| SMILES | HCMV NEC inh |
| --- | --- |
| O=C1c2ccccc2CCC1Sc1nnc(-c2ccccc2)o1 (configuration not stated) | -19.0 |
| CC(NC(=O)C(Cc1ccccc1)NC(=O)OCc1ccccc1)C(=O)CF (configuration not stated) | -1.6 |
| CN(N=O)C(=O)NC1C(O)OC(CO)C(O)C1O (configuration not stated) | -7.9 |
| NC(=O)C1(S(=O)(=O)c2ccccc2)CC1 | -10.1 |
| O=C1CSCN1c1ccc(Cl)cc1 | -8.3 |
| O=C(/C=C/c1ccc(F)cc1)Nc1ccon1 | -23.1 |
| CCc1cccc2sc(NN)nc12 | -16.3 |
| O=C(O)c1ccccc1C(=O)O | -19.2 |
| CCCn1ncc(NC(=O)Cn2cc(C)c(-c3cccc(Cl)c3)n2)n1 | -20.1&-20.1 |
| Nc1ccc(-c2cc(C(=O)O)c3ccccc3n2)cc1 | -13.2 |
| N#Cc1cccn1Cc1ccccc1N | -7.1 |
| CCOC(=O)c1c(C)c(C(=O)NCc2ccccc2)c(C)n1C | -3.7 |
| Cc1ccc(S(=O)(=O)N2CCCC2C(=O)Nc2nc3ccccc3s2)cc1 (configuration not stated) | -12.5 |
| N#CCc1ncc(CSc2nc3ccccc3[nH]2)s1 | -17.2 |
| COc1ccc(OC)c2[nH]c(=O)c(CCNC(=O)c3ccc(F)c(F)c3)cc12 | 1.7 |
| CCCc1cn(CC2CCCN(C(=O)c3nc4ncccn4n3)C2)nn1 (configuration not stated) | -9.1&-9.1 |
| CCOC(=O)c1c(N)sc2c1CCCCC2 | -9.9 |
| CC(=O)Nc1ccc(NC(=O)C2CC(C)=CCC2C(=O)O)cc1 (configuration not stated) | -11.4 |
| CCCCCCCCCCCCCCCCNc1ccc(C(=O)O)cc1 | -27.4&-27.4 |
| O=C(Nc1cccc(Cl)c1)c1ccccn1 | -7.6 |
| CC(Oc1ccc2c(c1)OCO2)C(=O)N(Cc1nccn1C)C(C)C (configuration not stated) | -14.8 |
| C=CCSC1=C(C#N)C(c2ccccc2)CC(=O)N1 (configuration not stated) | 1.3 |
| COc1ccc(-c2nnc3sc(-c4ccc(Br)o4)nn23)cc1 | -10.9 |
| CC(/C=C/c1cccnc1)=C\C(=O)O | -40.7 |
| CNC(=O)C(c1ccccc1)N1CCc2cc(OC)c(OC)cc2C1CCc1ccc(C(F)(F)F)cc1 (configuration not stated) | -6.4 |
| CCOc1ccc(C(=O)Nc2c3c(nn2-c2cccc(Cl)c2)CS(=O)C3)cc1 (configuration not stated) | -2.0 |
| O=C(CNC1=NCCC1)c1ccccc1 | -31.1 |
| CNC(=O)c1ccsc1NC(=O)c1cc2ccccc2cc1OC | -6.4 |
| O=C(C1CCCCCC1)N1CCC(Cn2cc(CCCO)nn2)CC1 | -5.3 |
| Nc1nc(Cl)nc2c1ncn2C1OC(CO)C(O)C1O (configuration not stated) | -31.9 |
| Cc1cccn2cc(COc3ccc(Cl)cc3)nc12 | 0.5 |
| O=C(COc1ccc2c3c(c(=O)oc2c1)CCC3)c1ccccc1 | -14.2 |
| N#CCSc1ncccn1 | -12.4 |
| Cc1cc2cc(CNC(=O)CC(C)C)ccc2n1C | -1.1 |
| CCOC(=O)c1nn(-c2ccc(OCC)cc2)cc1O | -3.5 |
| c1ccc2c(CCNc3ccc(Nc4ccncc4)cc3)c[nH]c2c1 | -13.4 |
| O=C(O)CCC(=O)Nc1ccc(-c2csc(-c3ccccc3)n2)cc1 | -51.8 |
| CSc1nnc(NC(=O)/C=C/c2cccc(F)c2)s1 | -0.6 |
| O=C(O)C=Cc1ccccc1O | -19.1 |
| CC(Oc1ccccc1)C(=O)Nc1ccc(-n2nncc2-c2ccccc2)cc1 (configuration not stated) | 3.1 |
| O=C(NN=Cc1ccc(O)c(O)c1)c1cc2ccccc2cc1O | -65.6 |
| CC(C)C(=O)Nc1nc(-c2ccccc2)c(-c2ccccc2)s1 | -8.6 |
| C=CCNC1=C2C[C@@H](C)C[C@H](OC)[C@H](O)[C@@H](C)/C=C(\C)[C@H](OC(N)=O)[C@@H](OC)/C=C\C=C(/C)C(=O)NC(=CC1=O)C2=O | -39.2 |
| CSc1nc2ccccc2n1C(=O)c1cccs1 | -1.5 |
| Cn1c(=O)c(F)c(Nc2ccc(I)cc2F)c2c(=O)n(CC(O)CO)cnc21 (configuration not stated) | -2.8 |
| FC(F)(F)Oc1ccc(-n2cccc2)cc1 | -7.2 |
| COc1ccc(Cl)cc1NC(=O)CC(NCCc1ccccc1)C(=O)O (configuration not stated) | 10.1 |
| CCCCC(C)(C)[C@H](O)/C=C/[C@H]1C=CC(=O)[C@@H]1CCCCCCC(=O)O | -11.4&-11.4 |
| CC(/C=C1\SC(=S)N(CCCC(=O)Nc2cc(C)on2)C1=O)=C\c1ccccc1 | -4.2 |
| CC(C)Oc1ccc(C(=O)c2ccc(NC3=NCCN3)cc2)cc1 | -21.7&-21.7 |
| CN1CCN(Cc2cccc(Oc3ccccc3)c2)CC1CCO (configuration not stated) | 51.5&51.5 |
| CCCC(=O)NC(C)c1nc2ccccc2n1C(C)C (configuration not stated) | 6.5 |
| O=C1C2CC=CCC2C(=O)N1c1cccc(O)c1 (configuration not stated) | 0.6 |
| C[C@@]12CCC3=C4CCC(=O)C=C4CC[C@H]3[C@@H]1CC[C@@]2(O)CC#N | -50.3 |
| CCCCCCCCCCCCCCCCOC[C@H](COP(=O)([O-])OCCCCCC[N+](C)(C)C)OC(C)=O | 2.1&2.1 |
| CC1(C)S[C@@H]2[C@H](NC(=O)[C@H](NC(=O)N3CCNC3=O)c3ccccc3)C(=O)N2[C@H]1C(=O)O | -18.6 |
| O=C(O)CNS(=O)(=O)/C=C/c1ccccc1 | -21.0 |
| Cc1ccc(NC2=NCCOC2)cc1 | -11.0 |
| Cc1ccccc1-c1c(-c2ccc(O)c(C)c2O)n[nH]c1C | -9.8 |
| COc1cc(S(=O)(=O)NCc2cccnc2)ccc1Cl | -3.9 |

By substructure, those above with an NH in an aromatic ring.
| SMILES | HCMV NEC inh |
| --- | --- |
| N#CCc1ncc(CSc2nc3ccccc3[nH]2)s1 | -17.2 |
| COc1ccc(OC)c2[nH]c(=O)c(CCNC(=O)c3ccc(F)c(F)c3)cc12 | 1.7 |
| c1ccc2c(CCNc3ccc(Nc4ccncc4)cc3)c[nH]c2c1 | -13.4 |
| Cc1ccccc1-c1c(-c2ccc(O)c(C)c2O)n[nH]c1C | -9.8 |

(continued)
| SMILES | HCMV NEC inh |
| --- | --- |
| CN(C)C(=O)c1cc(F)c(F)c(F)c1F | -1.7 |
| CC(C)C1C(=O)N(C)CCN1C(=O)C1(C)CC1 (configuration not stated) | -8.3 |
| O=C(c1ccccc1)c1ccccc1-n1cccc1 | -10.7 |
| CCCc1ccc(OCC(=O)c2ccc(O)cc2O)cc1 | -16.8 |
| COCC(=O)NCc1nc2ccccc2[nH]1 | 11.2 |
| CCC(CC)C(=O)Nc1c2c(nn1-c1cccc(C)c1)CSC2 | -12.1 |
| Cn1cncc1[C@@](N)(c1ccc(Cl)cc1)c1ccc2c(c1)c(-c1cccc(Cl)c1)cc(=O)n2C | -3.8 |
| COC(=O)C(C)Oc1ccc2c(C)cc(=O)oc2c1 (configuration not stated) | -4.1 |
| CCn1cnc(NC(=O)N(C)Cc2ccc(OC)cc2)n1 | 52.5&52.5 |
| CCOc1ccc(OCC)c(S(=O)(=O)NCc2ccccn2)c1 | -3.0 |
| O=S(=O)(c1cccs1)N1CCN(S(=O)(=O)c2cccs2)CC1 | -7.2 |
| CN(C)S(=O)(=O)c1ccc(C(=O)N2CCc3ccccc3C2)cc1 | -9.9 |
| COC(=O)C1=C(C)OC(N)=C(C#N)C1c1ccccc1C (configuration not stated) | -14.3 |
| CCSc1oc(-c2cccs2)nc1S(=O)(=O)c1ccccc1 | -15.6 |
| CCCn1c(-c2ccc(OC)cc2)nc2ccccc21 | 5.6 |
| COc1ccc(-c2nc(-c3ccc(-c4cccc(Cl)c4)o3)[nH]c2-c2ccc(OC)cc2)cc1 | -2.0&-22.1&-22.1 |
| O=S(=O)(NC1CCCCC1NCc1ccco1)c1ccccc1 (configuration not stated) | -10.3 |
| CCC(=O)Nc1ccc(-c2ccc(NC(=O)CC)c(OC)c2)cc1OC | -16.9 |
| Cc1ccc(/C=C2\SC(=S)N(C(CCC(=O)O)C(=O)O)C2=O)cc1 (configuration not stated) | -67.6 |
| COc1ccc(NC(=O)CSc2nc3ccccc3[nH]c2=O)cc1 | -6.7 |
| Cn1nc(-c2cccc(C3OCCO3)c2)c(=O)n(C)c1=S | -61.2 |
| O=C(O)CC(C1CCCCC1)n1cccc1 (configuration not stated) | 4.0 |
| O=C1CCN(S(=O)(=O)c2ccc(Cl)cc2)CCN1 | 1.2 |
| CCn1c(SCC(=O)N2CCC(C)CC2)nnc1-c1c[nH]c2ccccc12 | -13.4 |
| N#Cc1cccc(Cn2cc(C(F)(F)F)ccc2=O)c1 | -2.7 |
| CN(C)CCN1C(=O)C(=O)/C(=C(/O)c2ccc(F)cc2)C1c1ccccn1 (configuration not stated) | -23.8 |
| Nc1nc(-c2ccc(Cl)c(Cl)c2)c(-c2ccncc2)s1 | -3.3 |
| O=C(/C=C/c1cccc(F)c1)Nc1ccc2c(c1)OCO2 | -4.8 |
| Cc1[nH]c(C=C2C(=O)Nc3ccc(S(=O)(=O)Cc4c(Cl)cccc4Cl)cc32)c(C)c1C(=O)N1CCCC1CN1CCCC1 (configuration not stated) | -42.0 |
| NC(=S)NN=Cc1ncccc1N | -38.3 |
| COc1ccc(NC(=O)C2CC2)c2ccccc12 | -13.5 |
| COc1ccc(CCC(=O)O)cc1OC | -14.1 |
| O=C(NCCc1ccccc1)c1cc2cc(Cl)cc(Cl)c2oc1=O | -10.7 |
| NNC(=O)c1ccc(-c2ccccc2Cl)o1 | -39.2 |
| COc1ccc(/C=C/C(=O)CCC(=O)O)cc1 | -13.3 |
| CN(C)CCC(O)c1cc(Cl)sc1Cl (configuration not stated) | 2.9 |
| CC(C)(C)C(=O)Nc1nnc(SCc2ccccc2)s1 | 1.1 |
| Cc1ccc(S(=O)(=O)N2CCn3c(nc4ccccc43)C2)cc1 | -16.9 |
| CCCCCC(=O)N1CCC(n2cc(C3CCCC3)nn2)CC1 | -6.2 |
| CC(=O)OCOC(=O)CN(CC(=O)OCOC(C)=O)c1ccccc1OCCOc1ccccc1N(CC(=O)OCOC(C)=O)CC(=O)OCOC(C)=O | 0.4&-23.1 |
| O=C(c1cccs1)c1ccc(OCCCO)c(Cl)c1Cl | -31.8&-31.8 |
| N#Cc1ccc(-c2ccc(OC(=O)c3cccnc3)cc2)cc1 | -7.2 |
| CCCC(C(=O)O)N1C(=O)/C(=C/c2ccccc2Cl)SC1=S (configuration not stated) | -17.9 |
| CC(=O)Oc1ccc2c(=O)c(-c3nc4ccccc4s3)coc2c1 | -21.8 |
| CCOc1ccc(-n2c(SC(C)CC)nc3c(c2=O)SCC3)cc1 (configuration not stated) | 12.3 |
| COC(=O)c1ccc2c(c1)NC(=O)C1CCCN21 (configuration not stated) | -4.9 |
| O=C(O)CNS(=O)(=O)c1ccccc1C(F)(F)F | -9.4 |
| CCCCC[C@H](O)/C=C/[C@@H]1[C@H](CCCCCCC(=O)O)[C@H](O)C[C@H]1O | -17.2&-17.2 |
| O=C(O)CC(c1ccc(O)cc1)N1Cc2ccccc2C1=O (configuration not stated) | -3.4 |
| Cc1ccc(C(=O)Nc2nnc(SCC(=O)N3CCCc4ccccc43)s2)cc1 | -8.5 |
| Cc1nn(C)c(C)c1-c1ccnc(NCc2cnc3ccccn23)n1 | 0.8 |
| Cc1nn(C)cc1-c1ccnc(N2CCCN(c3ccc(F)cc3)CC2)n1 | 38.8&38.8 |
| C=C1C(=O)OC2C=C(C)CCC=C(C)CCC12 (configuration not stated) | -19.3 |
| CCC(=O)OCC(=O)[C@@]1(OC(=O)CC)[C@@H](C)C[C@H]2[C@@H]3CCC4=CC(=O)C=C[C@]4(C)[C@@]3(Cl)[C@@H](O)C[C@@]21C | -19.9&-25.7 |
| CC(C)(C)OC(=O)Nc1cccc2[nH]ccc12 | -5.2&-5.2 |
| Cc1cc(Sc2nnnn2-c2ccccc2)nc2ccccc12 | -14.3 |
| COc1ccc(N2C(=O)Cc3ccccc3C2=O)cc1 | 1.1 |
| Cc1nn(C)c(C)c1-c1ccnc(N2CCC(c3ccccc3Cl)C2)n1 (configuration not stated) | -5.5 |
| COC(=O)c1ccccc1Oc1ccc(NC(=O)c2ccccc2)cc1 | -18.1 |
| CCN(CC)CCCCNc1ncc2cc(-c3cc(OC)cc(OC)c3)c(NC(=O)NC(C)(C)C)nc2n1 | -16.3&5.0&5.0&-15.0&-14.4&-19.1&-23.3 |

The list continues:
| SMILES | HCMV NEC inh |
| --- | --- |
| Cc1ccc(NC(=O)c2cccn(OCc3ccc(F)cc3)c2=O)cc1 | -1.8 |
| Cn1cnc2cc3c(Nc4cccc(Br)c4)ncnc3cc21 | -22.2 |
| Cc1ccc2c(c1)c(C)c(C)n2CC(O)Cn1nc(C)cc1C (configuration not stated) | -1.2 |
| O=S(=O)(NCc1ccccc1)c1cc(Cl)ccc1Cl | -10.2 |
| CC(C)(C)c1cc(NC(=O)Nc2ccc(-c3cn4c(n3)sc3cc(OCCN5CCOCC5)ccc34)cc2)no1 | -14.3&-10.7&-15.9&-17.8&-16.9&-21.5&-25.2&-24.4 |
| CN(C)CCC=C1c2ccccc2Sc2ccc(Cl)cc21 | -23.5 |
| Cc1nnc(NC(=O)CSc2c[nH]c3ccccc23)s1 | 7.7 |
| O=C(C1=C(O)C(=O)N(Cc2cccnc2)C1c1ccc(F)cc1)c1cccs1 (configuration not stated) | -13.4 |
| COC(=O)c1sc2ccccc2c1NC(=O)c1ccc2c(c1)OCCO2 | 0.6 |
| CN1C(=O)CCC1c1cccnc1 (configuration not stated) | -49.1 |
| COc1cc(C(=O)NCC2CCCO2)cc(OC)c1OC (configuration not stated) | -10.2 |
| OCCN1CCN(CC(O)COCc2ccc(Cl)cc2)CC1 (configuration not stated) | -8.7 |
| Cc1ccc(C(C)C)cc1Oc1cc(Cl)nc(N)n1 | -2.1 |
| O=C(Nc1ccc(F)cc1)c1ccc2ccccc2c1 | -12.2 |
| COC(=O)c1cccc(N2C(=O)/C(=C\c3cccnc3)SC2=S)c1 | 0.4 |
| N#Cc1c(NC(=O)c2ccccc2F)sc2c1CCCC2 | -24.0 |
| CCNC(=O)Cc1c(OC)ccc2cc(Br)ccc12 | -44.2 |
| Fc1ccc(-n2cc(-c3ccnc(NCc4cnc5ccccn45)n3)cn2)cc1 | -2.3 |

This is a subset. The share of hits here may be higher or lower than overall.
